# From PubChem
# RecA splice inh: blocks M. tuberculosis RecA intein splicing. inhibition, %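 (about 9 µM by stock and volumes)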. AID 2221. P9WHJ3. hit rate 0.75% among 290,000. cell-free RecA intein splicing, fluorescence; in the data active means inhibition above about 30%;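 further: 0% = vehicle wells and 100% = reference inhibitor control wells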
# Target sequence (P9WHJ3 whole entry, looked up, canonical isoform): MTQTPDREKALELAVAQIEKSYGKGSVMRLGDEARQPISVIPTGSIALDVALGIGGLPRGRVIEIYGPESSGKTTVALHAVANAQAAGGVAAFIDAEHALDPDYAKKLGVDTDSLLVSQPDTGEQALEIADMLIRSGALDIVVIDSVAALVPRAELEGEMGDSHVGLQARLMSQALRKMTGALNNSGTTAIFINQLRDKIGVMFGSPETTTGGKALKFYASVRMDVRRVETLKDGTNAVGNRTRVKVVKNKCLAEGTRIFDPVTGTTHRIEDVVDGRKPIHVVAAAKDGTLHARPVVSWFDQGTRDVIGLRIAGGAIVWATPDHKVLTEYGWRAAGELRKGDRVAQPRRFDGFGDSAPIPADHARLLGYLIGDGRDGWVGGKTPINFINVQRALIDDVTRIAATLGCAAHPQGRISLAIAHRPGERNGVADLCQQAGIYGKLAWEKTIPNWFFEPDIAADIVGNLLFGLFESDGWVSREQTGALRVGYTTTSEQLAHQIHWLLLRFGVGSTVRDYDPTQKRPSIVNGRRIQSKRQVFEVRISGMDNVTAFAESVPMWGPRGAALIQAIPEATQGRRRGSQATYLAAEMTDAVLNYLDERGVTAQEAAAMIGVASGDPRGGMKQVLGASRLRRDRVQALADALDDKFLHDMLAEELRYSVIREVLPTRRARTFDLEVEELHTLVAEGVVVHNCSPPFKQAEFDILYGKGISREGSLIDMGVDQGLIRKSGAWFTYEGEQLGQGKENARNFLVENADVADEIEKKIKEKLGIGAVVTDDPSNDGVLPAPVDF
# Mtb growth: M. tuberculosis H37Rv growth inhibitors, H37Rv strain (AID 1626) | M. tuberculosis H37Rv growth inhibition; higher % means a stronger effect | one-dose inhibition, % at 10 µM; IC50 in µM for titrated hits | hit rate 0.95% among 220,000;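 active means confirmed in a dose series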;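 further: bacteria incubated seven days before Alamar blue readout; 0% = bacteria only wells and 100% = bacteria with antibiotic wells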
# Arbovirus inh: blocks arbovirus infection; arbovirus infection cell-based antiviral screen; inhibition, % at 10 µM; hit rate 0.37% among 200,000;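 active means inhibition from about 30%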;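 further: bluetongue infection of BSR cells; cell survival read as ATP light after 72 h; 0% = infected wells without compound and 100% = uninfected wells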
# Mtb betalactam: beta-lactam sensitization of Mtb H37Rv; M. tuberculosis H37Rv growth with meropenem, percent inhibition; hits of this screen are not shown here; inhibition, % at 25 µM; hit rate 0.27% among 330,000; AID 434955;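 active means about 74% or more and at least 40 points above the plate without the antibiotic, then above 30% in a dose series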;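 further: growth measured after seven days incubation then overnight dye step; 0% = bacteria only wells and 100% = bacteria with antibiotic; twin plates without the antibiotic show which effects depend on it; some results filed as inactive read as strong as hits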
# YopH PTP inh: blocks Yersinia enterocolitica YopH tyrosine phosphatase; fluorescence Ex485/Em525; inhibition, %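 (about 10 µM by stock and volumes)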; hit rate 0.16% among 140,000; AID 898;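 active means inhibition of 50% or more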;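 further: controls were vehicle for no effect and minimum signal wells for full effect; inactives centre near -20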
# Arbovirus inh repeat: also measured in Arbovirus inh; calls as there; inhibition, %; measured here: 10K subset replicate screen; many hits read low in the repeat;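 first of two repeat runs on a subset; 0% = infected and 100% = uninfected wells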
# * = called active by the depositor; x = not tested or not shown.
SMILES,RecA splice inh,Mtb growth,Arbovirus inh,Mtb betalactam,YopH PTP inh,others
O=C(CSc1ccccc1)NCC1(N2CCOCC2)CCCCC1,-2.0,x,x,-8,x,
O=C(CSc1ncn[nH]1)N1CCCCC1,1.0,x,x,5,x,
Cc1cccn2c(=O)c(/C=C3\SC(=S)N(CC(C)C)C3=O)c(NCCCOC(C)C)nc12,x,1%,4,1,7,
Cc1nn(-c2ccccc2)c(C)c1/C=N/NC(=O)c1cc(-c2cccc3ccccc23)n[nH]1,13,5%,-4,97,-3,
COCCN1CCN(C(=O)c2cc(COc3ccc(F)c(F)c3)on2)CC1,-1.4,x,x,7,x,
O=C(N/N=C/c1ccccn1)c1cccc(S(=O)(=O)Nc2ccccc2Cl)c1,0.5,0%,-2,1,x,
COc1cc(NS(=O)(=O)c2ccc(F)cc2)c(OC)cc1NC(=O)C1CC1,-3.8,-5%,2,x,6,
CC(C)c1ccc(/C=C/C(=O)N2CCc3ccccc3C2)cc1,2.8,1%,12,5,-19,
CCCCOC(=O)c1cc(-c2ccc(/C=N/n3cnnc3)o2)ccc1Cl,22,-2%,x,6,17,
COCCOC(=O)C1=C(C)NC(=O)NC1c1c(Cl)nc2ccccn2c1=O (stereo not given),-0.2,-8%,-1,-1,-14,
CC(c1ccccc1)C1CC(=O)N(c2ccccc2)C1=O (stereo not given),-2.9,x,x,-7,x,
CN(C)CCOc1ccc2ccccc2c1,1.7,0%,3,2,-21,
COc1nc2c(c(-c3cc(Br)cs3)c1C#N)Cc1ccccc1-2,-1.5,6%,x,-11,x,
CCOC(=O)/C(C#N)=C/c1ccc(OCC(=O)Nc2cc(C)ccc2C)c(OC)c1,-1.6,-3%,-2,-2,-25,
COC(=O)Cn1c(=NC(=O)c2cc(-c3cccs3)nc3ccccc23)sc2cc(S(N)(=O)=O)ccc21,-33,80%,3,3,-12,
COc1ccccc1C(=O)Nc1nnc(S(=O)(=O)N(C)Cc2ccccc2)s1,-4.0,x,x,5,x,
CCn1nc(NS(=O)(=O)c2ccc([N+](=O)[O-])cc2)c2cc3cccc(C)c3nc21,0.2,x,x,-2,x,
COc1ccc2c(c1)C(C)=CC(C)(C)N2C(=O)CNCc1ccc2c(c1)OCO2,-4.5,4%,3,-14,-2,
O=C(Cn1nc(C(=O)O)c2ccccc2c1=O)NC12CC3CC(CC(C3)C1)C2,-2.7,-5%,0,-4,x,
N#Cc1nc(-c2ccc(OCc3ccccc3)cc2)oc1NCc1ccco1,0.4,-4%,-7,-4,-31,
CCOC(=O)C1=C(C)NC2=C(C(=O)CC(C)(C)C2)C1c1ccc(O)c(OCC)c1 (stereo not given),-5.8,6%,x,0,x,
COCc1[nH]nc2c1C(c1ccccc1Cl)C(C#N)=C(N)O2 (stereo not given),24,-6%,0,-8,-30,
CCOc1ccccc1OCC(O)CNC (stereo not given),-6.0,-3%,10,0,0,
Cc1ccc2c(c1)Oc1ccc([N+](=O)[O-])cc1C(=O)N2,0.3,7%,1,3,x,
COc1ccccc1CNC(=O)Nc1cccs1,-0.8,1%,-12,-4,-12,
Cc1cc2ccccc2c(=O)n1CC(=O)NCC(=O)N(C)Cc1ccccc1,1.2,-1%,-5,9,-20,Arbovirus inh repeat=7
Oc1cccc2nc3ccccc3nc12,x,47%,x,44,x,
CCCCOC(=O)CSC1=C(C#N)C(c2ccc3c(c2)OCO3)CC(=O)N1 (stereo not given),-9.0,-11%,-9,-9,-16,
CC(C)CN(C(=O)COC(=O)CCSc1ccc(F)cc1)c1c(N)n(Cc2ccccc2)c(=O)[nH]c1=O,-0.6,x,x,-2,x,
O=C(Nc1ccccc1Cl)N1C2CCC1CC(O)(c1cccnc1)C2 (stereo not given),-2.3,1%,11,1,x,
CC(=O)c1cccc(NC(=O)C(C)OC(=O)C2CCC2)c1 (stereo not given),-0.1,x,x,1,x,
O=C(Nc1cccc(Cl)c1)c1ccc(NC2=NC3CS(=O)(=O)CC3S2)cc1 (stereo not given),-0.5,x,x,-6,x,
CCOc1ccc(S(=O)(=O)N(C)c2ccc(OCC(=O)OCc3c(C)noc3C)cc2)cc1,2.1,-9%,-1,7,-11,
O=C(COC(=O)c1nc(Cl)ccc1Cl)c1ccccc1Cl,0.4,x,x,-7,x,
O=C(Nc1c(C(=O)N2CCOCC2)cnn1-c1ccccc1)c1ccc([N+](=O)[O-])cc1,-3.3,x,x,-4,x,
O=C(O)c1ccc(NC(=O)c2cccc(C(=O)Nc3ccc(C(=O)O)cc3)n2)cc1,1.2,x,x,5,x,
CCCCn1c(N)c(N(CCOC)C(=O)c2cc3c(s2)CCC3)c(=O)[nH]c1=O,4.3,x,x,-9,x,
N#C/C(=C/c1cn(CC(=O)O)c2ccccc12)C(=O)NCc1ccccc1,-1.5,0%,-5,-5,x,
CCN(CC)c1ccc(NC(=O)C2CCCN(S(=O)(=O)c3cccnc3)C2)c(C)c1 (stereo not given),0.5,-9%,-5,4,-20,
COc1ccc(-n2nc(C(=O)O)cc2-c2ccccc2)cc1,0.3,x,x,-1,x,
Clc1ccc2c(c1)CNc1c(ncnc1N1CCOCC1)O2,-0.6,-6%,-5,-11,-13,
COc1ccccc1OCCNC(=O)c1cc(SC)ccc1Cl,-0.8,2%,-5,-7,-17,
CC(C)c1ccc(/C=C/C(=O)Nc2nc3ccc([N+](=O)[O-])cc3s2)cc1,5.7,2%,-13,4,-41,
Cc1ccccc1Sc1ccc([N+](=O)[O-])cn1,0.2,x,x,-3,x,
Cc1ccc(CNC(=O)c2cccnc2Sc2cccc(Cl)c2)cc1,-0.9,-5%,x,-1,x,
COC(=O)c1nc(NC(=O)c2ccccc2)n[nH]1,8.7,-25%,1,-10,-36,
CCOc1ccc(OCc2ccc(C(=O)OCc3ccccn3)o2)cc1,14,x,-7,99,-31,
O=C(NN1CCOCC1)c1cc(-c2cccs2)nc2ccccc12,-2.7,7%,2,5,-8,
CC(=O)Nc1ccc(NC(=O)C/C(C)=N/NC(N)=S)cc1,x,39%,-5,7,x,
CCCc1cc(=O)[nH]c(NCc2ccc(Cl)cc2)n1,2.8,-3%,16,7,9,
CCOc1ccccc1-c1cc(-c2ccc(OC)cc2)nc2c1c(=O)n(C)c(=O)n2C,-1.5,-3%,x,0,x,
CC(=O)Nc1c(C)cc(S(C)(=O)=O)cc1C,0.0,3%,4,3,-21,
O=C1C2CC=CCC2C(=O)N1Cc1ccccc1Cl (stereo not given),-0.1,2%,-2,5,-17,
Cc1ccc(CCNC(=O)c2cc(C)nn2-c2ccccc2)cc1,0.7,1%,x,8,x,
Cc1oc2c(O)c(O)ccc2c(=O)c1-c1ccc(Cl)cc1,-4.6,x,x,4,x,
COc1cccc(NC2c3ccccc3C(=O)N2Cc2ccccc2Cl)c1 (stereo not given),1.8,9%,x,-3,x,
CCOC(=O)C1=C(C)N(CCCC(=O)O)C(=O)NC1c1ccc(C(F)(F)F)cc1 (stereo not given),-1.3,-11%,x,x,x,
COc1ccc(C)cc1NC(=O)c1ccc(NC(=O)CC2SC(N3CCCC3)=NC2=O)cc1 (stereo not given),2.6,-5%,-8,-4,-30,
c1ccc(-c2cn(-c3ccccc3)c3[n+]2CCS3)cc1,-5.9,7%,24,1,x,
CCC(C)NC(=O)C1c2ccccc2Oc2ccccc21 (stereo not given),-4.7,19%,x,-3,x,
# (continued)
SMILES,RecA splice inh,Mtb growth,Arbovirus inh,Mtb betalactam,YopH PTP inh,others
NC(=O)C1CCN(Cc2nnnn2Cc2ccco2)CC1,-0.1,0%,-2,-14,-35,
CC(OC(=O)CNC(=O)c1ccco1)C(=O)N(C)c1ccccc1 (stereo not given),-0.7,5%,7,-6,x,
CC(c1ccncn1)N(C)Cc1nc(-c2ccc(C(F)(F)F)cc2)no1 (stereo not given),x,9%,7,-2,x,
N#CC(=C1SC=CS1)c1nc(-c2ccccc2)cs1,4.1,9%,-6,-6,-44,Arbovirus inh repeat=-2
C=CCn1c(SCc2cc(=O)n3ccsc3n2)nc2cc(Cl)ccc2c1=O,16,8%,7,-1,x,
COc1cccc(CNC(=O)CCCCCn2c(=S)[nH]c3ccc(N4CCOCC4)cc3c2=O)c1,-6.4,8%,-16,2,-27,
COc1ccc(CCn2c(C)cc(C(=O)COC(=O)c3cnccn3)c2C)cc1,-3.2,x,x,18,x,
O=Cc1ccc(N2CCCC2)c([N+](=O)[O-])c1,1.6,-1%,19,2,x,
COc1cccc(NC(=O)NNC(=O)C(C)Oc2ccc3ccccc3c2)c1 (stereo not given),3.0,x,x,-2,x,
Cn1c(=O)c([N+](=O)[O-])c(N2CCSCC2)c2ccccc21,x,9%,x,-7,x,
Cc1cc2n(n1)C(c1cn(-c3ccccc3)nc1C)Nc1c(C)cccc1-2 (stereo not given),3.1,3%,-5,-8,-26,
Brc1ccc(-c2nnc3sc(CNCc4ccc5c(c4)OCO5)cn23)cc1,-2.7,7%,-6,-2,-19,Arbovirus inh repeat=-8
CCc1cc(=O)oc2cc(C)c(CN3CCCC(C)C3)c(O)c12 (stereo not given),0.2,4%,-2,0,14,
COC(=O)CN1C(=O)[C@H]2[C@@H](C3CC3)N3C(=O)CN(CCO)C(=O)[C@@]3(Cc3ccccc3)[C@H]2C1=O,-0.3,x,x,-8,x,
Cc1ccsc1C(=O)Nc1ccccc1N1CCCC1,-1.2,x,x,7,x,
CCN(CC)S(=O)(=O)c1ccc(-c2nnc(SCc3nnc(-c4ccccc4)o3)o2)cc1,4.2,-9%,-18,2,-10,
COc1cc(/C(C)=N/NC(=O)CN2CCN(S(=O)(=O)c3ccc(C)cc3)CC2)ccc1O,-2.0,0%,x,3,x,
CC(C)CC(c1nnnn1Cc1ccccc1)N1CCN(C(=O)c2ccco2)CC1 (stereo not given),-0.2,7%,12,-3,-24,
CCOCCCNC(=O)c1ccc2c(c1)ncn2-c1ccccc1OC,-1.3,x,x,1,x,
O=C(CCCOc1ccc(Cl)cc1)NC1CCCCC1,-0.1,x,x,8,x,
COc1ccc(CNC(=O)CN(c2ccc(OC)c(Cl)c2)S(=O)(=O)c2ccc(C)cc2)cc1,-0.3,x,x,-3,x,
O=C(O)CSc1nnc(COc2cccc3ccccc23)o1,-2.1,x,x,-9,x,
O=C1Cc2cc([N+](=O)[O-])ccc2N1c1c(Cl)cccc1Cl,23,x,x,7,x,
O=C(CN1C(=O)c2ccccc2C1=O)NCCc1c[nH]c2ccccc12,8.5,-4%,3,0,-19,

# No new results follow: two of the compounds above.
SMILES,RecA splice inh,Mtb growth,Arbovirus inh,Mtb betalactam,YopH PTP inh,others
O=C1Cc2cc([N+](=O)[O-])ccc2N1c1c(Cl)cccc1Cl,23,x,x,7,x,
O=C(CN1C(=O)c2ccccc2C1=O)NCCc1c[nH]c2ccccc12,8.5,-4%,3,0,-19,

# (next part)
SMILES,RecA splice inh,Mtb growth,Arbovirus inh,Mtb betalactam,YopH PTP inh,others
O=c1cc(-c2ccccc2)[nH][nH]1,97*,-10%,-6,9,-15,
Oc1ccc(/C=N/Nc2nc(-c3ccccc3F)nc3ccccc23)c(O)c1,11,2%,x,13,x,
Cc1cc(N2C(=O)C3C4C=CC(C4)C3C2=O)no1 (stereo not given),-2.6,-3%,3,-5,-27,
Cc1oc(S(=O)(=O)N2CCCCC2)cc1NC(=O)Nc1ccc(F)cc1,x,-1%,x,-6,x,
Cc1cc(C)c(C)c(S(=O)(=O)NCC(=O)NCC2CCCCC2)c1C,1.3,x,x,-4,x,
Cc1ccc(/C=c2\sc3n(c2=O)CN(c2cccc(Br)c2)CN=3)o1,-2.2,0%,10,8,-35,

# Molecules listed so far containing an NH in an aromatic ring:
SMILES,RecA splice inh,Mtb growth,Arbovirus inh,Mtb betalactam,YopH PTP inh,others
O=C(CSc1ncn[nH]1)N1CCCCC1,1.0,x,x,5,x,
Cc1nn(-c2ccccc2)c(C)c1/C=N/NC(=O)c1cc(-c2cccc3ccccc23)n[nH]1,13,5%,-4,97,-3,
COCc1[nH]nc2c1C(c1ccccc1Cl)C(C#N)=C(N)O2 (stereo not given),24,-6%,0,-8,-30,
CC(C)CN(C(=O)COC(=O)CCSc1ccc(F)cc1)c1c(N)n(Cc2ccccc2)c(=O)[nH]c1=O,-0.6,x,x,-2,x,
CCCCn1c(N)c(N(CCOC)C(=O)c2cc3c(s2)CCC3)c(=O)[nH]c1=O,4.3,x,x,-9,x,
COC(=O)c1nc(NC(=O)c2ccccc2)n[nH]1,8.7,-25%,1,-10,-36,
CCCc1cc(=O)[nH]c(NCc2ccc(Cl)cc2)n1,2.8,-3%,16,7,9,
COc1cccc(CNC(=O)CCCCCn2c(=S)[nH]c3ccc(N4CCOCC4)cc3c2=O)c1,-6.4,8%,-16,2,-27,
O=C(CN1C(=O)c2ccccc2C1=O)NCCc1c[nH]c2ccccc12,8.5,-4%,3,0,-19,
O=c1cc(-c2ccccc2)[nH][nH]1,97*,-10%,-6,9,-15,

# The list is partial (hit frequency here may not be typical).
